# ALR inh – blocks human ALR sulfhydryl oxidase activity. P55789. purified ALR, DTT oxidation, H2O2 HRP-luminol luminescence. inhibition, % (test concentration not listed). 3.8% of 290,000 active. AID 485317;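 active = mean and each replicate at 75% or more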;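 also: stock transfer was 7.5 nL into about 7.5 µL; 0% = neutral wells and 100% = wells with inactivated enzyme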
# Target sequence (P55789 whole entry, looked up): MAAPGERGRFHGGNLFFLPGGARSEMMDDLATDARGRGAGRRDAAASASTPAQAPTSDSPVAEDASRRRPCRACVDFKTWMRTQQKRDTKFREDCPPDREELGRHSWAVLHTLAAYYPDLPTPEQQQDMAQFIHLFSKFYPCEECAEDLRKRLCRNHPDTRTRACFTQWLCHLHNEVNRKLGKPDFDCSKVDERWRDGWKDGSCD
# Beta cell apopt – beta cell apoptosis inhibition. INS-1E cytokine-induced death, ATP luminescence, 48 h; percent of positive-control rescue, neutral wells zero. protection from apoptosis, % (concentration not given with the values). 0.8% of 300,000 active;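 active = all replicates at 75% or more, or half of them and the mean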;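 also: 0% = cytokine-treated negative control wells and 100% = positive control rescue; higher means more ATP so stronger rescue from cytokine killing; wells of about 40 µL received 100 nL stock; the first replicate is given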
# Calb FLC – affects C. albicans growth with fluconazole | C. albicans CaCi-2 (fluconazole-resistant clinical isolate) + fluconazole, Alamar Blue growth, 48 h | growth inhibition, % (no concentration beside the values) | 0.57% of 300,000 active | AID 1979;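 active = most replicates above 75%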;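 also: all wells also contain fluconazole at 8 µg/ml as a sub-toxic cotreatment; 0% = median of DMSO wells and 100% = median of geldanamycin control wells; wells of about 8 µL received 7.5 nL stock; the first replicate is given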
# LANA-H2A inh – blocks KSHV LANA binding to histone H2A/H2B. Q9QR71. cell-free LANA-H2A/H2B peptide, fluorescence polarization. inhibition, % (no concentration beside the values). 0.6% of 320,000 active. AID 2629; in the data active = inhibition mostly above about 10%, no sharp cut-off; inactive = mostly below about 6.7%;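 also: stock transfer was 7.5 nL into about 10 µL; 0% = median of vehicle wells and 100% = median of positive control wells; one replicate is shown; the record names a cut of 25% in any replicate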
# Beta2AR agonist – activates human beta-2 adrenergic receptor causing internalization; Am2.2-beta2AR cells, FAP receptor internalization, flow cytometry; reference of the scale not given here; 0.43% of 340,000 active; response, % (concentration not given with the values);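 active = response above a set limit, near 3 SD of response in nonfluorescent compounds, cut at about 42% in these data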;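 also: stock transfer was 100 nL into about 11 µL; a reference agonist was the positive control; negative values mostly stem from fluorescent compounds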
# Target sequence (P07550 whole entry, looked up): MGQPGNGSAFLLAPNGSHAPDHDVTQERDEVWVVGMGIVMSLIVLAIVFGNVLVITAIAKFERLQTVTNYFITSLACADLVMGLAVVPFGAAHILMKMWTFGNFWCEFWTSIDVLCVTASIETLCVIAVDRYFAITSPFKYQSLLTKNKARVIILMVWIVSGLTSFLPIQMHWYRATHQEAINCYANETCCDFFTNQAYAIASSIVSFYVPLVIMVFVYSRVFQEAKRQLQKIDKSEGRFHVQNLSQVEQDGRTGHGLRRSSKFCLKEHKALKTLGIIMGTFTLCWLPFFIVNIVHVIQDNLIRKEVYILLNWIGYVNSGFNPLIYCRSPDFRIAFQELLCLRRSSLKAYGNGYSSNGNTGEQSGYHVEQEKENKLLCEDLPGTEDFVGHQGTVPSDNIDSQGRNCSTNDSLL
# T cruzi repl – T. cruzi replication inhibition. T. cruzi beta-gal in NIH3T3, luminescence, 90 h. inhibition, % (concentration not given with the values). 1.4% of 300,000 active;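 active = mean inhibition across valid replicates above about 55%, limit read from the data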;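 also: signal also drops with host cell toxicity which is not excluded here; 0% = plate median of DMSO wells and 100% = zero luminescence signal; higher percent means less beta-gal luminescence so fewer parasites; stock transfer was 50 nL into about 50 µL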
# A1 inh – inhibitors of the anti-apoptotic protein A1, read as caspase activation; caspase activation, % (test concentration not listed); 0.066% of 330,000 active; MEF A1-2A-BIM cells, Caspase-Glo 3/7 luminescence, 3 h; percent of clofoctol response, vehicle zero;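 active = over half of replicate activation scores above 10%, or exactly half above 10 with the replicate mean above 10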;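 also: wells of about 30 µL received 50 nL stock; many hits fall short of the cut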
# Ecoli rRNA inh – inhibits bacterial ribosomal RNA function over humanized ribosomes; E. coli WT GFP vs humanized-ribosome RFP mutants, fluorescence, 24 h; hits give low values; DMSO median 0, no signal -100; GFP signal change (wild-type ribosome), % (concentration not given with the values); 1.6% of 350,000 active;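 active = significant combined selectivity score with lowered wild-type GFP, culture density cut under 30%, mutant RFP and density less affected; inactive = any of these conditions unmet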; also: one replicate is shown; some compounds called inactive have numbers as strong as hits
# Ecoli rRNA inh OD600 – further read-out of Ecoli rRNA inh, marked with its call; OD600 change, %; measured here: OD600 growth;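 optical density of the mix in the first replicate; 0 = DMSO median and -100 = no signal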
# Ecoli rRNA inh RFP – also measured in Ecoli rRNA inh; calls as there; RFP signal change, %; measured here: RFP humanized mutant strains;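 first replicate; 0 = DMSO median and -100 = no signal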
# An asterisk follows results filed as active; . = no result given.
molecule	ALR inh	Beta cell apopt	LANA-H2A inh	Beta2AR agonist	Ecoli rRNA inh	Ecoli rRNA inh OD600	T cruzi repl	Ecoli rRNA inh RFP	A1 inh	Calb FLC
S=C(NC1CCCCC1)N1CCn2cccc2C1c1cccnc1 (configuration not stated)	11.4	-2.6	0.8	-4.1	22.5	7.6	54.6*	8.6	0.9	-19.6
COc1ccc(NC(=O)c2ccc3[nH]c(C)c(C)c3c2)c(OC)c1	.	3.0	0.9	-21.1	-14.7*	9.9*	13.8	4.2*	0.4	-2.4
O=C(CCc1nnc(C2(c3ccc(Cl)cc3)CCC2)o1)N1CCCC(O)C1 (configuration not stated)	2.8	-0.8	-1.8	-1.2	0.6	1.4	-8.5	-2.5	-0.3	-0.3
Cc1ccccc1N1C(=O)CC(N2CCN(C(=O)c3ccco3)CC2)C1=O (configuration not stated)	-1.0	-1.8	2.7	-1.4	5.0	12.3	-2.9	-1.8	-0.3	19.0
COc1cccc(CNC(=O)C2CCN(C(=O)N(C)C)CC2)c1	-15.6	-7.8	-5.7	-0.1	.	.	-7.4	.	-0.2	1.4
C=CCn1c(CCCOc2ccc(Cl)cc2Cl)n[nH]c1=S	41.6	3.9	-4.7	-4.5	-1.7	-8.0	21.2	-1.0	0.1	22.0
COC(=O)c1ccc(CSc2nc(C)nc3c2c(=O)n(C)c(=O)n3C)o1	-6.8	0.6	-2.4	14.7	2.5	7.9	2.0	1.6	-0.1	1.5
CN(C(=O)CCc1ccccc1F)C1CCCN(Cc2ccccc2F)C1 (configuration not stated)	.	2.8	-4.7	-3.1	-7.0	-7.8	33.2	-1.9	0.9	-11.1
CC(=O)Nc1ccc(S(=O)(=O)NNC(=S)NCc2ccco2)cc1	61.3	-1.7	5.5	2.6	9.7	10.8	-11.5	0.1	-0.1	1.8
Cc1nonc1CN(C)C(=O)c1cc(COc2ccc(F)cc2Cl)on1	-7.3	6.3	-2.2	-0.5	-17.0	-33.8	2.0	14.9	0.1	2.1
N#Cc1nc(-c2cccc3ccccc23)oc1N	0.5	-21.3	0.0	9.4	6.4	9.1	.	-5.3	1.0	.
O=C(Nc1cccc(-n2cnnn2)c1)c1cc2ccccc2o1	-15.2	1.8	4.4	-10.3	2.9	17.1	0.3	-2.2	-2.9	2.8
C/C(CC(=O)Nc1ccc(N(C)C)cc1)=N\NC(=O)c1ccc(Cl)cc1	31.0	0.3	-0.6	5.4	3.6	4.7	11.2	12.1	0.2	11.8
COc1cc(NC(=O)Cc2nn(C)c(=O)c3ccccc23)cc(OC)c1	-17.9	.	3.4	2.2	.	.	-16.9	.	-0.1	-0.3
CC(C)Oc1ccc(C2NC(=O)c3ccccc3O2)cc1 (configuration not stated)	.	1.1	-7.3	14.0	0.5	9.8	-3.3	-0.2	-0.3	-0.6
Cc1csc(N2CCCC2=O)n1	-4.9	.	-0.2	-9.9	10.9	3.0	-15.6	2.3	0.6	-1.3
Cc1cc2oc(C(=O)NCc3ccccc3)cc(=O)c2cc1C	-0.5	1.0	1.9	8.6	3.9	4.0	-2.4	-3.6	-0.1	18.3
CC1CCc2c(sc(NC(=O)c3cccs3)c2C(=O)O)C1 (configuration not stated)	.	5.6	1.8	9.0	-11.3	-51.3	-21.9	-4.8	-6.8	50.7
O=C(NCCc1ccc(Cl)cc1)C1CCN(c2cnccn2)CC1	-7.1	.	-0.6	1.4	-5.2	-6.1	-0.4	-0.5	0.9	-3.0
Cn1cc(CC(=O)NCc2ccc(F)cc2)c2ccccc21	3.3	-8.6	0.1	-23.7	-4.7	-3.2	0.0	5.0	-0.5	11.7
CCN(CC)C(=O)Cn1c(=O)n(CCC(=O)Nc2ccc(F)cc2)c(=O)c2sccc21	-1.7	-0.8	-0.4	-9.2	-1.7	0.3	-7.3	-0.9	-0.3	-2.1
COc1ccc(CNC(=O)CCCCCNC(=O)N2CCn3c2nc2ccccc23)cc1	0.1	-0.2	5.4	-20.0	9.8	5.0	-1.3	-2.8	-0.3	3.1
COCC1CCN(C(=O)CCc2nnc(CCCCc3ccccc3)o2)CC1	-14.8	-0.2	4.9	9.8	7.7	-1.2	-8.2	-1.0	0.2	-5.3
CCCNC(=O)NC(=O)CSc1ccc(C)cc1C	-5.8	-1.4	-2.3	11.4	-14.6	-5.8	18.4	-3.5	1.2	-8.5
N#Cc1cc([N+](=O)[O-])ccc1NC(=O)COC(=O)CC1CCCC1	4.4	-2.0	-2.5	.	.	.	-7.9	.	0.1	-2.0
CC(=O)c1sc(NC(C)c2ccccc2)nc1C (configuration not stated)	0.7	2.7	4.3	5.5	-2.9	-6.5	-9.2	0.0	-0.2	-3.7
CC(C)c1ccc(/C=C2\SC(=O)N(CC(=O)NC3CCS(=O)(=O)C3)C2=O)cc1 (configuration not stated)	42.8	7.2	9.0	1.0	1.8	-2.6	-7.1	1.2	-1.6	-13.9
CN(C)C(=O)c1cccn(Cc2ccc(C(F)(F)F)cc2)c1=O	3.5	-3.8	-0.9	-5.4	3.6	6.5	-11.1	13.5	0.1	-2.0
Cc1nc2c(-c3ccc(F)cc3)c(C)nn2c(C)c1CCC(=O)N1CCN(c2ccccc2)CC1	-15.4	-0.9	-2.7	-4.8	-8.6	-16.8	34.7	5.5	1.0	10.8
C/C=N/NC(=O)CCCC(=O)N/N=C/C	6.5	1.1	1.1	-7.5	.	.	-20.0	.	0.2	2.6
O=C(NCc1cccnc1)/C(=C/c1ccc(-c2cccc(Cl)c2)o1)S(=O)(=O)c1ccccc1	59.0	112.2*	6.6	29.2	.	.	48.3	.	1.2	12.1
CC1CCN(c2ccc(S(=O)(=O)NC3=NCCCCC3)cc2[N+](=O)[O-])CC1	.	1.9	.	0.9	-12.8	-11.6	27.2	-1.3	0.6	-9.1
O=C(N/N=C/c1ccccc1O)C1SCCCS1	8.4	-6.6	1.4	-0.6	-14.2*	5.6*	-4.5	3.5*	-2.1	3.9
O=C(COc1cccc2cccnc12)NCc1cccs1	-66.7	12.7	2.3	-0.6	-10.8	-15.6	-7.9	-1.1	0.2	-2.9
Cc1ccccc1C(=O)NCCCNC(=O)c1ccco1	-2.2	-2.6	4.3	-4.1	-0.2	1.3	-9.1	-2.8	0.2	-4.7
O=C(Nc1cccc(O)c1)c1ccc(Br)c(S(=O)(=O)N2CCCCC2)c1	-6.0	-8.0	0.8	15.5	13.4	9.2	5.4	-3.6	-1.6	38.5
COc1ccc(-c2nnc(SCC(=O)Nc3cccnc3Cl)n2C)cc1	-3.1	-3.4	-0.8	0.7	8.9	8.8	-6.4	1.3	0.9	6.5
CC(C)Oc1ccc(/C(O)=C2/C(=O)C(=O)N(CCN3CCNCC3)C2c2ccc(C(C)C)cc2)cc1 (configuration not stated)	-12.7	-10.9	-6.6	2.8	12.5	16.1	-6.0	0.7	0.8	-1.5
Nc1ccccc1Nc1c(F)c(F)nc(F)c1Cl	98.0*	0.4	-6.4	13.2	-3.9	1.3	-5.7	2.8	0.1	-13.7
O=C(COc1cc2oc(=O)c3c(c2cc1Cl)CCC3)NCC(O)c1ccccc1 (configuration not stated)	-0.6	2.4	-5.8	6.6	-0.1	-5.3	16.7	-1.7	0.1	2.2
COc1ccc(CCNC(=O)c2nnn(-c3ccccc3OC)c2N)cc1OC	-5.4	-1.2	-0.8	1.9	.	.	-15.9	.	0.4	-0.8
Cc1cc(C)c2nc(C(F)(F)F)nc(N3CCN(C(=O)c4ccco4)CC3)c2c1	5.9	30.1	-0.2	-4.1	.	.	14.8	.	-0.3	-5.6
CC(=O)c1c(O)cc(C)n(Cc2ccccc2)c1=O	0.9	-1.2	6.0	-10.9	.	.	-12.2	.	-0.2	12.2
Cc1ccccc1Cn1cc(NC(=O)c2cc(C3CC3)on2)cn1	1.7	-2.1	4.3	0.5	-18.4	-25.6	2.1	-1.8	-1.0	7.8
COc1ccc(CNC(=O)CN2CCN(c3cccc(C)c3C)CC2)cc1	-3.2	-7.8	-1.5	-13.6	-0.7	-0.5	4.8	0.1	-1.2	4.5
CCC[N+](CC#Cc1ccccc1)(CCC)CC(=O)c1ccc(Cl)cc1	-8.1	5.4	-1.8	1.6	-0.3	0.0	12.9	0.0	-0.8	-4.6
O=C(NCCN1CCCCC1)Nc1ccc([N+](=O)[O-])cc1	6.8	.	3.2	-6.6	12.2	14.5	9.1	1.6	1.3	7.5
CC(C)n1cnc2cc(NC(=O)c3ccco3)ccc21	-7.6	-3.5	-0.4	-15.5	4.4	5.7	-2.9	-3.6	0.2	7.1
O=S(=O)(c1ccc(Br)s1)N1CCN(c2ccnc3cc(Cl)ccc23)CC1	-1.1	33.0	-0.1	-1.3	-12.7	-10.8	29.1	7.1	0.0	15.7
Cc1ccc(-n2c(N)c(C(N)=O)sc2=S)c(C)c1	11.4	2.7	0.9	-1.5	.	.	-13.2	.	0.2	-6.3

# Remaining list, next part
molecule	ALR inh	Beta cell apopt	LANA-H2A inh	Beta2AR agonist	Ecoli rRNA inh	Ecoli rRNA inh OD600	T cruzi repl	Ecoli rRNA inh RFP	A1 inh	Calb FLC
O=C(CN1C(=O)NC2(CCCC2)C1=O)NCc1ccc(Cl)cc1	-7.1	-1.3	-3.2	-1.1	1.8	3.5	.	-3.5	-0.6	.
CC(C)COC(=O)c1ccc(N2C(=O)c3ccccc3C2=O)cc1	-1.9	-3.6	3.1	2.3	20.1	8.2	5.4	0.0	0.2	1.0
CCNC(=S)N(CCc1c(C)[nH]c2ccc(C)cc12)Cc1ccco1	69.2	-5.8	0.7	4.7	0.5	1.3	-32.1	5.3	1.4	-5.0
O=C(CN1CCN(C(=O)c2ccccc2)CC1)NC(=O)NCCC1=CCCCC1	-3.5	0.8	0.8	9.7	-8.7	-22.0	.	-1.4	0.7	.
CN(C(=O)CCS(=O)(=O)c1ccc2c(c1)oc(=O)n2C)C1CCCCC1	1.4	-3.8	-0.9	-20.3	-4.8	-4.6	43.6	-5.8	2.1	2.0
Cc1ccc(S(=O)(=O)N2CCC(=O)N(C(COCc3cccc(C)c3)Cc3ccccc3)CC2)cc1 (configuration not stated)	.	-1.2	-3.8	11.8	2.1	2.6	32.9	0.8	-0.6	4.7
O=C(CCCn1ncn2c(cc3occc32)c1=O)N1CCc2ccccc2C1	2.2	0.7	-0.8	-14.6	.	.	-4.1	.	-0.2	-2.9
O=C(NCN1CCN(CCO)CC1)c1cnccn1	-8.3	.	2.6	5.1	.	.	-11.5	.	0.6	4.9
Cc1ccc(NC(=O)CN2C(=O)C(=O)N(C3CCCC3)C2=O)c(Cl)c1	.	-6.6	5.3	-3.9	1.8	-1.6	.	-2.0	-0.1	.
CCOC(=O)c1ccc(NC(=O)CC2Sc3ncnn3C2=O)cc1 (configuration not stated)	-0.4	-2.7	0.5	7.4	.	.	-19.0	.	-1.1	-22.8

# From PubChem BioAssay

# Not all compounds are listed; the hit share may differ from the screen's.
